Screens as filed in PubChem BioAssay.
Mtb growth = M. tuberculosis H37Rv growth inhibitors, H37Rv strain (AID 1626). M. tuberculosis H37Rv growth inhibition; higher % means a stronger effect. inhibition, % at 10 µM, or IC50 in µM where a hit was titrated. actives 0.95% (n = 220,000);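 active = confirmed in a dose series; inconclusive = inhibition above 80% but not taken into the dose series; inactive = below 80% or under 30% at every dose of the series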;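 also: bacteria incubated seven days before Alamar blue readout; 0% = bacteria only wells and 100% = bacteria with antibiotic wells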
YopH inh = YopH tyrosine phosphatase inhibitors, primary screen, biochemical, fluorescence Ex485/Em525; YopH tyrosine phosphatase [Yersinia enterocolitica]; inhibition, %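 (about 10 µM by stock and volumes)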; actives 0.16% (n = 140,000);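 active = inhibition of 50% or more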;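 also: controls were vehicle for no effect and minimum signal wells for full effect; inactives centre near -20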
Arbovirus anti = antivirals against arbovirus infection, primary screen, cell-based, full library, 10K replicate subset. arbovirus infection cell-based antiviral screen. actives 0.37% (n = 200,000). inhibition, % at 10 µM;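 active = inhibition from about 30%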;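 also: bluetongue infection of BSR cells; cell survival read as ATP light after 72 h; 0% = infected wells without compound and 100% = uninfected wells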
RecA splice inh = Mtb RecA intein splicing inhibitors, primary screen, biochemical, fluorescence, HTS; Protein RecA (Mycobacterium tuberculosis (strain ATCC 25618 / H37Rv)), P9WHJ3; cell-free RecA intein splicing; inhibition, %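 (about 9 µM by stock and volumes)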; actives 0.75% (n = 290,000); AID 2221, 2009; in the data active = inhibition above about 30%; inconclusive = no clear call, values can overlap the other calls;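 also: 0% = vehicle wells and 100% = reference inhibitor control wells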
Target sequence (P9WHJ3 whole entry, looked up, canonical isoform): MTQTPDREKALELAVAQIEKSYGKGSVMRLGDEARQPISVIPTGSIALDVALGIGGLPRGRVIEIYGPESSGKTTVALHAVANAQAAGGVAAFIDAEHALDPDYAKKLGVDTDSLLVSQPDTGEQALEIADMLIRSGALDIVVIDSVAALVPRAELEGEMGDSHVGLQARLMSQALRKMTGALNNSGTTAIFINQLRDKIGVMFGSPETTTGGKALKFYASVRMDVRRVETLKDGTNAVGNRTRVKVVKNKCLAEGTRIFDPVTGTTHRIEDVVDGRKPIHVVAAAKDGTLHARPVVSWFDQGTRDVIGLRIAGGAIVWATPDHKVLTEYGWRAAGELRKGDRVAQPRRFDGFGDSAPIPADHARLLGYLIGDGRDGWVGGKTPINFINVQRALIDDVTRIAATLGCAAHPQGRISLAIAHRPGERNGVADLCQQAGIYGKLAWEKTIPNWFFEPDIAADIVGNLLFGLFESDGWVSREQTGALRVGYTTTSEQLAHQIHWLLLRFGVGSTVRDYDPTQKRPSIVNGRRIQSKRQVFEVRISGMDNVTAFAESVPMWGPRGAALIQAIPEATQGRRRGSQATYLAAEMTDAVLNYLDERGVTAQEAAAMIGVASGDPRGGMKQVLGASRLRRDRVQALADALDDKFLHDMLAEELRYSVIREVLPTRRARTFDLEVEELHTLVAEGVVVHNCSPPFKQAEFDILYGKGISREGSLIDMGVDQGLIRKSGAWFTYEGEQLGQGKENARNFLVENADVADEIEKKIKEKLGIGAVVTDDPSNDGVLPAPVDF
Mtb bLac sens = beta-lactam sensitization of Mtb H37Rv, H37Rv. M. tuberculosis H37Rv growth with meropenem, percent inhibition; hits of this screen are not shown here. inhibition, % at 25 µM. actives 0.27% (n = 330,000). AID 434955, 2010;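 active = about 74% or more and at least 40 points above the plate without the antibiotic, then above 30% in a dose series; inconclusive = first-round hits that could not be retested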;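 also: growth measured after seven days incubation then overnight dye step; 0% = bacteria only wells and 100% = bacteria with antibiotic; twin plates without the antibiotic show which effects depend on it; some results filed as inactive read as strong as hits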
Arbovirus anti repeat = further read-out of Arbovirus anti, marked with its call; inhibition, %; measured here: 10K subset replicate screen; many hits read low in the repeat;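 first of two repeat runs on a subset; 0% = infected and 100% = uninfected wells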
Numbers without * were called inactive; ? = inconclusive; . = not tested or not shown.

SMILES	Mtb growth	YopH inh	Arbovirus anti	RecA splice inh	Mtb bLac sens	others
CCN(CC)C(=O)C(C)OC(=O)c1ccc(O)cc1 (stereo not given)	-4%	-23	-6	-1.9	7
CCOCCCNC(=S)NC1CC2CCC(C1)N2Cc1ccccc1 (stereo not given)	0%	.	6	-0.9	-4
Nc1cc(C(=O)O)ccc1N1CCCCC1	-18%	0	0	-4.9	-7
N=C1/C(=C\c2ccc(SCc3ccccc3)o2)C(=O)N=C2SC=NN12	-3%	.	17	1.6	3
CC(=O)c1ccc(N2CCN(S(=O)(=O)c3cn(C)c(C)n3)CC2)cc1	.	.	.	-2.2	-19
OCCNCCCOc1cc(Cl)ccc1Cl	-5%	.	-5	-0.8	-5
CCOC(=O)c1c(C)[nH]c(C(=O)COC(=O)CSCC(=O)N(CC)CC)c1C	-1%	-45	-3	-1.3	-5
O=[N+]([O-])c1cccc(NC(=S)NCc2ccncc2)c1	-5%	.	4	-4.6	0
Cn1c(CCNC(=O)c2ccco2)nc2cc(NS(=O)(=O)c3ccccc3)ccc21	-3%	-38	-4	-1.9	-7
CCOc1ccccc1N1CC(C(=O)Nc2c(C)n(C)n(-c3ccccc3)c2=O)CC1=O (stereo not given)	3%	.	14	-0.6	-2
C=CCN=C(C)C1=C(O)C(C)OC1=O (stereo not given)	-3%	-7	-9	-3.7	9
O=C(N/N=C/c1ccc(Br)s1)c1cccs1	?	.	.	-0.3	90
Cc1ccc(NC(=O)CN(C)c2ccc(S(=O)(=O)N3CCN(C)CC3)cn2)cc1	-12%	-12	-6	0.5	-13
Cc1onc(-c2ccccc2)c1C(=O)NCc1cccc(Cl)c1	.	.	.	-1.8	-12
CCCCC(=O)Nc1ccc(C(=O)Nc2ccc(S(=O)(=O)N3CCCC3)cc2)cc1	0%	15	2	0.0	-3
Cc1cccc(-n2nc(C)c3c(C(=O)O)cc(-c4cccs4)nc32)c1	-1%	.	42*	1.4	37
Cc1cccc(C)c1NC(=O)CN1C(=O)S/C(=C\c2cccn2C)C1=O	15%	-18	-13	-1.8	5
CN(C)C(=O)c1ccc(OCC(F)(F)F)nc1	-10%	.	.	.	0
COc1cccc(COC(=O)c2cc(S(=O)(=O)N3CCCCC3)ccc2N2CCOCC2)c1OC	.	.	.	0.1	-2
O=C(CNC(=O)c1ccc(Cl)cc1Cl)OCn1nnc2ccccc2c1=O	.	.	.	-1.7	0

Overlap with the part before: 3 entries, followed by the next part.
SMILES	Mtb growth	YopH inh	Arbovirus anti	RecA splice inh	Mtb bLac sens	others
CN(C)C(=O)c1ccc(OCC(F)(F)F)nc1	-10%	.	.	.	0
COc1cccc(COC(=O)c2cc(S(=O)(=O)N3CCCCC3)ccc2N2CCOCC2)c1OC	.	.	.	0.1	-2
O=C(CNC(=O)c1ccc(Cl)cc1Cl)OCn1nnc2ccccc2c1=O	.	.	.	-1.7	0
Cn1c(=O)[nH]c(Nc2ccccc2)c([N+](=O)[O-])c1=O	-9%	.	-4	-0.2	0
O=C(CSc1nc2ccccc2n1Cc1ccccc1)N/N=C/c1ccccc1C(=O)O	-4%	.	.	3.1	3
O=C(CCCN1C(=O)/C(=C\c2ccco2)SC1=S)Nc1ccc(O)cc1C(=O)O	.	.	.	24	3
Cc1nc(OCc2ccccc2)c2sc3nc4c(cc3c2n1)COC(C)(C)C4	.	-100	11	-0.3	.
CC(C)c1cccc(C(C)C)c1NC(=O)COc1nncc2ccccc12	0%	-25	2	-0.7	5
COP(=O)(OC)/C(C=O)=N/Nc1ccc([N+](=O)[O-])cc1	-8%	.	4	1.5	-2
COc1ccc(CN(Cc2ccc(C(=O)O)cc2)C(=S)Nc2ccc(C)cc2)cc1OC	4%	.	0	0.3	2
O=C1c2ccccc2C(=O)N1Cc1nc(-c2ccccn2)no1	-6%	-26	6	1.0	-5
COc1ccc(CNC(=O)C2(CC3CC(c4ccccc4)=NO3)CCNCC2)cc1 (stereo not given)	8%	.	.	-1.9	-13
CCN(CC)S(=O)(=O)c1cccc(C(=O)NCC2CCCCC2)c1	.	.	.	3.1	6
NC(=O)c1nsc(C(=O)N(CC(=O)NC2CCCC2)c2ccc(F)c(Cl)c2)c1N	.	.	.	0.1	-3
COCCCNC(=O)CC(NCCCOC)C(=O)O (stereo not given)	-8%	-8	-4	0.0	1
O=C(CCC1CCCCC1)Nc1c2c(nn1-c1ccc(F)cc1)CS(=O)C2 (stereo not given)	-6%	-30	7	0.5	-2
O=C(COc1ccc([N+](=O)[O-])cc1)NC(C(=O)O)C(O)c1cccc([N+](=O)[O-])c1 (stereo not given)	-5%	.	2	-4.1	-2
CCOCCCn1c(C)nc2c(c1=O)c1nc3ccccc3nc1n2CCC1=CCCCC1	?	-11	-21	0.6	100
O=C(c1cc2cc(Cl)ccc2[nH]1)N1CCN(C(=O)c2ccco2)CC1	.	.	.	3.6	-4
CN(C)/N=C/c1ccc(Sc2ccc([N+](=O)[O-])cc2[N+](=O)[O-])o1	24%	-17	-17	0.5	6
Cc1ccc(NC(=O)C2C3CCC(O3)C2C(=O)O)cc1Cl (stereo not given)	.	.	.	-2.0	39
Cc1n(Cc2ccccc2)c2ccccc2[n+]1Cc1ccccc1	.	.	.	3.7	0
CNC(=O)NC(=O)COC(=O)CCc1nc(=O)c2ccccc2n1C	-10%	.	-1	-2.1	-1

Retrieved one by one from the entries so far, seven records:
SMILES	Mtb growth	YopH inh	Arbovirus anti	RecA splice inh	Mtb bLac sens	others
CCOCCCn1c(C)nc2c(c1=O)c1nc3ccccc3nc1n2CCC1=CCCCC1	?	-11	-21	0.6	100
CC(=O)c1ccc(N2CCN(S(=O)(=O)c3cn(C)c(C)n3)CC2)cc1	.	.	.	-2.2	-19
Cc1ccc(NC(=O)C2C3CCC(O3)C2C(=O)O)cc1Cl (stereo not given)	.	.	.	-2.0	39
O=C(CSc1nc2ccccc2n1Cc1ccccc1)N/N=C/c1ccccc1C(=O)O	-4%	.	.	3.1	3
CCCCC(=O)Nc1ccc(C(=O)Nc2ccc(S(=O)(=O)N3CCCC3)cc2)cc1	0%	15	2	0.0	-3
Cc1n(Cc2ccccc2)c2ccccc2[n+]1Cc1ccccc1	.	.	.	3.7	0
Cc1ccc(NC(=O)CN(C)c2ccc(S(=O)(=O)N3CCN(C)CC3)cn2)cc1	-12%	-12	-6	0.5	-13

The main list resumes, repeating the 3 entries before the break.
SMILES	Mtb growth	YopH inh	Arbovirus anti	RecA splice inh	Mtb bLac sens	others
Cc1ccc(NC(=O)C2C3CCC(O3)C2C(=O)O)cc1Cl (stereo not given)	.	.	.	-2.0	39
Cc1n(Cc2ccccc2)c2ccccc2[n+]1Cc1ccccc1	.	.	.	3.7	0
CNC(=O)NC(=O)COC(=O)CCc1nc(=O)c2ccccc2n1C	-10%	.	-1	-2.1	-1
CCNC(=O)COc1ccc(/C=N/NC(=O)c2cccnc2)cc1OC	-3%	.	4	0.0	7
COc1ccc(NC(=O)C2CC2)cc1-n1cnnn1	3%	-49	7	-1.0	47
CSc1ccc(CCNC(=O)C2CCN(c3nnc(-n4cccc4)s3)CC2)cc1	42%	-54	-10	-0.2	45
Cc1ccc(NC(=O)c2ccccc2N2C(=O)C3C4C=CC(C5CC45)C3C2=O)cc1C (stereo not given)	.	.	.	2.6	-20
O=c1c2nnn(-c3ccc(Br)cc3)c2ncn1Cc1ccccn1	-1%	.	10	-2.4	2
COc1cc(C#N)ccc1OC(=O)Cc1cc(OC)c(OC)c(OC)c1	.	.	.	-3.1	0
COc1ccc(NC(=S)NN(C)C(=S)Nc2ccc(OC)cc2)cc1	5%	-29	-9	-0.8	34
CCC(C(=O)N1CCOCC1)n1c2ccccc2c2nc(=O)cc(C)n21 (stereo not given)	.	.	.	-5.1	1
O=C(NC1CCCC1)C1CCCN1C(=O)Nc1ccccc1 (stereo not given)	1%	-30	15	-3.0	-8
COC(=O)C1CCN(C(=O)c2ccccc2Oc2ccccc2)CC1	-3%	-22	1	1.7	-2
CC1CN(C(=O)Cn2c(=O)oc3ccccc32)CC(C)O1 (stereo not given)	.	.	.	-1.2	5
O=C(NCc1ccccc1)c1nc2ccccc2s1	6%	.	-7	2.0	14
Cc1cccc(OCC(=O)NCc2cc(C)nc3ccccc23)c1	-9%	.	4	.	-11
C=CCSC1=N/C(=C\c2ccc3c(c2)OCO3)C(=O)S1	0%	-28	-1	-0.9	-6	Arbovirus anti repeat=-2
Cc1cc(C)c(NC(=O)c2ccc(S(=O)(=O)N3CCOCC3)cc2)c(C)c1	-1%	.	1	2.7	-3	Arbovirus anti repeat=5
O=C(c1cc(Cl)nc2ccccc12)N1CCc2ccccc2C1	4%	.	5	7.7	-5
CCOc1ccccc1NC(=O)COC(=O)CC(NC(N)=O)c1ccc(Cl)cc1 (stereo not given)	-6%	.	5	0.7	7
O=C(NCCc1ccccc1)c1cc2ncc(Br)cn2n1	-6%	-28	-3	3.1	-5
O=C(O)CSc1nnc(-c2cccc(S(=O)(=O)N3CCCCC3)c2)o1	5%	.	-2	3.3	-3
CCN1C(=O)CC(N2CCC(C(=O)N3CCCCCC3)CC2)C1=O (stereo not given)	2%	.	5	-6.8	-10
COc1ccc(CN2CCn3ncc(C(=O)Nc4cc(C)cc(C)c4)c3C2=O)cc1	-3%	-36	0	1.9	12
Cc1cc(C(C#N)c2cccc(Cl)c2)n2ncnc2n1 (stereo not given)	.	-187	29	-4.0	19
COc1cc(O)c2c(c1)COC2=O	2%	-24	-2	-3.2	4
C=CCn1c(C)nnc1SCC(=O)NC1CC1	.	.	.	-1.5	6
Cc1ccc(N2C(=O)CC(Sc3ncccn3)C2=O)cc1C (stereo not given)	.	.	.	-0.5	-4
O=C(CNC(=O)c1ccc2c(c1)OCO2)N/N=C/c1cc(Br)ccc1O	.	.	.	-3.7	-1
CC(C)(C)c1ccc(C(=O)Nc2nonc2-c2nc3ccccc3[nH]2)cc1	0%	-34	13	0.2	-3
C=CCNc1nc(=S)[nH]c2cc(OC)c(OC)cc12	6%	.	0	-2.6	1
COc1ccc(CCNC(=O)c2cc(C)oc2C)cc1	.	.	.	1.5	-1
Cc1noc(/C=C/N(C)C)c1S(=O)(=O)N1CCCC(C(=O)NCc2ccc(Cl)cc2)C1 (stereo not given)	-5%	-42	-17	.	-5
CCN(CC1COc2ccccc2O1)C(=S)Nc1ccc(F)cc1 (stereo not given)	3%	-22	18	1.6	0
COc1cc(/C=N/NC(=O)c2cnn3c(C)cc(-c4ccccc4)nc23)ccc1O	5%	-41	3	-5.0	1
S=c1[nH]ncc2ccccc12	-6%	-42	8	2.8	-9
COc1ccc(S(=O)(=O)NCC2CC3C=CC2C3)cc1OC (stereo not given)	.	.	.	4.0	5
O=C(OC1CCS(=O)(=O)c2sccc21)c1ccccc1 (stereo not given)	-2%	-18	-1	-1.5	11
CCCn1nnc(NC(=O)c2cc(Br)ccc2OC)n1	1%	7	-2	1.7	0
COC(CNC(=O)C1CCC(CNS(=O)(=O)c2c(C)cc(C)cc2C)CC1)OC (stereo not given)	.	.	.	-1.1	3

Four neighbouring entries from above:
SMILES	Mtb growth	YopH inh	Arbovirus anti	RecA splice inh	Mtb bLac sens	others
COc1ccc(S(=O)(=O)NCC2CC3C=CC2C3)cc1OC (stereo not given)	.	.	.	4.0	5
O=C(OC1CCS(=O)(=O)c2sccc21)c1ccccc1 (stereo not given)	-2%	-18	-1	-1.5	11
CCCn1nnc(NC(=O)c2cc(Br)ccc2OC)n1	1%	7	-2	1.7	0
COC(CNC(=O)C1CCC(CNS(=O)(=O)c2c(C)cc(C)cc2C)CC1)OC (stereo not given)	.	.	.	-1.1	3

These rows are one share of the data; count on the stated rates, not on these rows.
